Source: PubChem (Broad Institute)
Vaccinia stage: Vaccinia orthopox stage-specific inhibition | activity change (mCherry), % (test concentration not listed) | Vaccinia-infected cells, mCherry/Venus stage reporter fluorescence; hits give low values; some inactives read as strong as hits | 0.01% of 89,000 active;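 active means mCherry past -33% and 40 or more points under the early reporter, replicates agreeing; inconclusive means past -33% without that gap or agreement; tested in A549 cells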;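 further: scaled between vehicle wells and reference inhibitor wells; 23 nL library stock went into each well; one replicate is shown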
Vaccinia stage Venus: also measured in Vaccinia stage; calls as there; activity change (Venus), %; measured here: Venus reporter, other viral stage;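 negative = less Venus signal; first of two replicates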
Active calls of the source: *; ? = inconclusive; . = no result given; & = joins results of further samples. Not all compounds are listed. The share of hits here may be higher or lower than overall.

Every second line gives: Vaccinia stage	Vaccinia stage Venus
> C[C@@H]1CCCCO[C@@H](CN(C)Cc2ccc3c(c2)OCO3)[C@@H](C)CN([C@@H](C)CO)C(=O)c2cc(NS(=O)(=O)c3ccc(Cl)cc3)ccc2O1
 : ?	2.6
> C[C@H](CO)N1C[C@H](C)[C@H](CN(C)C(=O)Nc2ccc(F)cc2)Oc2c(NS(=O)(=O)c3cccs3)cccc2C1=O
 : -4.2	-12.2
> C[C@H]1CN([C@@H](C)CO)C(=O)c2cc(N(C)C)ccc2O[C@H]1CN(C)S(C)(=O)=O
 : -2.0	-1.6
> COc1ccc(CN(C)C[C@@H]2OCCCC[C@H](C)Oc3ccc(NC(=O)c4ccncc4)cc3C(=O)N([C@H](C)CO)C[C@@H]2C)cc1
 : -1.9	4.5
> COc1cccc(-c2ccc([C@@H]3[C@@H](CO)N4C(=O)CN(C(=O)c5cccnc5)C[C@@H]34)cc2)c1
 : -4.8	0.0
> N#C[C@@H]1[C@@H](c2ccccc2)[C@H](CO)N1C(=O)CN1CCOCC1
 : -0.9	-2.1
> CC(C)NC(=O)N1[C@@H]2c3cccc(=O)n3C[C@@H]2[C@@H](CO)[C@@H]1C(=O)N1CCC(Cc2ccccc2)CC1
 : 8.4	-1.4
> Cc1noc(C)c1NC(=O)Nc1ccc2c(c1)CC(=O)N([C@@H](C)CO)C[C@@H](C)[C@H](CN(C)C(=O)Nc1ccc3c(c1)OCO3)O2
 : 3.2	0.6
> CN(C)C(=O)c1ccc(-c2ccc([C@H]3[C@@H](CO)N4CCCCN(C(=O)C5CCCC5)C[C@@H]34)cc2)cc1
 : 14.1	6.2
> CCC(=O)N1CC2(C1)[C@@H](c1ccc(-c3cccc(OC)c3)cc1)[C@@H](CO)N2C(C)=O
 : -7.6	-10.2
> Cc1ccc(S(=O)(=O)Nc2ccc3c(c2)C(=O)N([C@H](C)CO)C[C@H](C)[C@@H](CN(C)C(=O)Nc2ccccc2)OCCCC[C@H](C)O3)cc1
 : -32.3	-25.2
> CO[C@H]1CC[C@H]2CCOc3c(C#N)cccc3C(=O)N(C)CC3(CCCCC3)CC(=O)N(C)C[C@H]1O2
 : 14.9	9.3
> CN1CCN(C(=O)C[C@H]2CC[C@@H]3[C@H](COc4ccc(NC(=O)c5ccc(F)c(F)c5)cc4C(=O)N3C)O2)CC1
 : 19.2	9.0
> O=C(Cc1ccccc1)N1CC(=O)N2[C@@H](CO)[C@@H](c3ccc(C#CCc4ccccc4)cc3)[C@@H]2C1
 : 2.7	-5.3
> CCC(=O)Nc1ccc2c(c1)C(=O)N(C)C[C@@H](OC)[C@H](C)CN(Cc1ccccc1OC)[C@H](C)CO2
 : -5.5	0.0
> C[C@@H]1CN([C@@H](C)CO)C(=O)c2cc(NC(=O)Cn3cnnn3)ccc2O[C@H]1CN(C)S(=O)(=O)c1cn(C)cn1
 : 6.4	2.0
> COCC(=O)N(C)C[C@H]1Oc2ncc(C3=CCCC3)cc2C(=O)N([C@@H](C)CO)C[C@H]1C
 : 12.3	6.0
> COCCNC(=O)C[C@H]1CC[C@H]2[C@H](COc3ccc(NC(=O)C4CCOCC4)cc3C(=O)N2C)O1
 : 4.5	4.1
> C[C@@H]1CCCCO[C@@H](CN(C)C(=O)Nc2ccc3c(c2)OCO3)[C@H](C)CN([C@H](C)CO)C(=O)c2cc(NS(=O)(=O)c3cccs3)ccc2O1
 : -8.2	-12.2
> Cc1noc(C)c1S(=O)(=O)Nc1ccc2c(c1)CC(=O)N([C@@H](C)CO)C[C@H](C)[C@H](CN(C)C(=O)Nc1ccccc1)O2
 : 5.3	0.0
> COCC(=O)N(C)C[C@H]1Oc2ncc(Br)cc2C(=O)N([C@@H](C)CO)C[C@H]1C
 : 6.8&7.1	0.9&23.4
> CCCC#Cc1cnc2c(c1)C(=O)N([C@H](C)CO)C[C@@H](C)[C@@H](CN(C)Cc1ccc(F)cc1)O2
 : -28.4	-13.8
> Cc1noc(C)c1NC(=O)N(C)C[C@H]1Oc2c(cccc2N(C)C)C(=O)N([C@H](C)CO)C[C@@H]1C
 : 11.1	6.8
> COc1ccc(-c2cnc3c(c2)C(=O)N([C@H](C)CO)C[C@H](C)[C@@H](CN(C)Cc2ccccc2)O3)cc1
 : -25.6	-26.7
> COc1ccc([Si](C)(C)[C@H]2[C@H](CCn3cc(CCO)nn3)O[C@@]3(C(=O)N(C)c4c(Br)cc(C)cc43)[C@@H]2C)cc1
 : ?	.
> COc1ccc(NC(=O)N(C)C[C@@H]2Oc3ccc(NS(=O)(=O)c4ccccc4)cc3CC(=O)N([C@H](C)CO)C[C@H]2C)cc1
 : 4.7	-1.0
> C[C@@H]1CN([C@@H](C)CO)S(=O)(=O)c2ccc(C#Cc3ccccc3)cc2O[C@@H]1CN(C)CC1CC1
 : -19.3	-27.1
> OC[C@@H]1[C@@H](c2ccc(-c3ccc(F)cc3)cc2)[C@@H]2CN(Cc3cccnc3)CCCCN12
 : -24.3	-16.8
> O=C(C1CCC1)N1C[C@H]2[C@@H](c3ccccc31)[C@@H](CO)N2C(=O)c1ccccc1
 : -9.2	7.6
> C[C@H]1CN([C@@H](C)CO)C(=O)Cc2cc(NC(=O)NC3CCCCC3)ccc2O[C@H]1CN(C)Cc1ccncc1
 : 2.3	-3.8
> COc1ccccc1NC(=O)N[C@H]1CC[C@@H](CCNC(=O)c2ccc3c(c2)OCO3)O[C@H]1CO
 : -10.2	-8.0
> Cn1cnc(S(=O)(=O)N2CCCCN3[C@H](CO)[C@H](c4ccc(C5=CCCC5)cc4)[C@@H]3C2)c1
 : 11.4	-4.5
> CC(=O)N(C[C@@H]1N[C@@H](CO)[C@H]1c1ccc(-c2ccc(F)cc2)cc1)C(C)C
 : -17.8	-2.9
> O=C([C@H]1[C@H](CO)[C@H]2Cn3c(cccc3=O)[C@@H]1N2CCC(F)(F)F)N1CCCCC1
 : 11.1	3.2
> O=C(Nc1ccccc1F)N1C[C@@H]2[C@H](c3ccccc31)[C@H](CO)N2C(=O)C1CC1
 : 3.4	8.9
> CC(C)C#Cc1ccc([C@@H]2[C@@H](C#N)N(C(=O)C3CCC3)[C@H]2CO)cc1
 : -4.9	-0.4
> O=C(C[C@@H]1CC[C@H]2[C@@H](COC[C@@H](O)CN2C(=O)c2ccc(F)cc2)O1)NCCCN1CCOCC1
 : -1.3	-1.8
> CCCNC(=O)C[C@@H]1CC[C@@H]2[C@@H](COc3ccc(NC(=O)c4cccc(F)c4)cc3C(=O)N2C)O1
 : 7.8	12.9
> C[C@@H]1CN([C@H](C)CO)C(=O)c2cccc(N(C)C)c2O[C@H]1CN(C)C(=O)Nc1ccc(C(F)(F)F)cc1
 : -12.6	-2.7
> C[C@@H]1CN([C@H](C)CO)C(=O)c2cccc(NS(C)(=O)=O)c2O[C@H]1CN(C)C
 : 14.8	6.9
> C[C@H](CO)N1C[C@H](C)[C@@H](CN(C)Cc2ccc(Oc3ccccc3)cc2)Oc2ccc(NS(=O)(=O)c3cn(C)cn3)cc2CC1=O
 : -12.5	-9.6
> Cc1cccc(S(=O)(=O)N[C@H]2CC[C@H](CCNC(=O)Nc3cc(F)ccc3F)O[C@H]2CO)c1
 : -9.3	-5.5
> CC(C)NC(=O)N(C)C[C@H]1Oc2c(NC(=O)c3nc4ccccc4s3)cccc2C(=O)N([C@@H](C)CO)C[C@@H]1C
 : 4.2	-3.9
> C[C@@H]1CN([C@@H](C)CO)C(=O)c2cc(/C=C/c3ccccc3)cnc2O[C@H]1CN(C)S(=O)(=O)c1cn(C)cn1
 : 17.4	-1.7
> O=C(O)C[C@H]1C[C@@H]2c3cc(NC(=O)Nc4ccc(C(F)(F)F)cc4)ccc3O[C@@H]2[C@H](CO)O1
 : 9.9	11.2
> O=C(C[C@H]1CC[C@H]2[C@@H](COC[C@H](O)CN2C(=O)Nc2ccc(Cl)c(Cl)c2)O1)NC1CCC1
 : ?	.
> COC(=O)C[C@H]1CC[C@@H]2[C@H](COc3ccc(NC(=O)Nc4c(C)noc4C)cc3C(=O)N2C)O1
 : 24.4	9.0
> C[C@H](CO)N1C[C@H](C)[C@H](CN(C)Cc2ccc3c(c2)OCO3)Oc2ncc(Br)cc2C1=O
 : 10.7&9.8	4.6&8.2
> C=CC[C@@]12N=C(c3ccc(OCCCO)cc3)O[C@@H]1c1ccccc1CN(C(=O)c1ccccc1)C2=O
 : ?	.
> C[C@H](CO)N1C[C@H](C)[C@H](CN(C)Cc2ccc(C(F)(F)F)cc2)Oc2ccc(NC(=O)Nc3ccc(F)cc3)cc2C1=O
 : ?	.
> C[C@@H]1CN([C@H](C)CO)C(=O)c2cc(NC(=O)Nc3ccc4c(c3)OCO4)ccc2O[C@@H](C)CCCCO[C@@H]1CN(C)Cc1ccncc1
 : -3.7	-6.8
> CC(C)NC(=O)N[C@H]1CC[C@@H](CC(=O)O)O[C@H]1CO
 : 2.0	3.6
> C/C=C/c1ccc([C@@H]2[C@H](CO)N3C(=O)CN(C(=O)Nc4ccccc4F)C[C@@H]23)cc1
 : 7.6	-10.3
> CO[C@H]1CN(C)C(=O)c2cc(NC(=O)c3cc(C)on3)ccc2OC[C@@H](C)N(C)C[C@H]1C
 : 7.2	12.4
> C=C[C@H](COC(C)=O)N(Cc1ccc(OC(C)=O)c(OC)c1)S(=O)(=O)c1ccc(Br)cc1
 : -3.0	-6.1
> O=C(N[C@@H]1C=C[C@H](CC(=O)N2CCCCC2)O[C@H]1CO)c1cccc(F)c1
 : 2.4	4.0
> Cc1ccccc1S(=O)(=O)N1C[C@@H](O)COC[C@@H]2O[C@H](CC(=O)NCc3ccccc3Cl)CC[C@H]21
 : -16.8	-2.4
> COc1ccc(NC(=O)Nc2cccc3c2O[C@H](CN(C)Cc2ccc(Oc4ccccc4)cc2)[C@@H](C)CN([C@H](C)CO)C3=O)cc1
 : -34.3	-30.5
> C[C@@H]1CN([C@H](C)CO)C(=O)c2cccc(N(C)C)c2O[C@H]1CN(C)S(=O)(=O)c1cn(C)cn1
 : 0.7	2.4
> C[C@@H]1CN([C@@H](C)CO)C(=O)c2cc(NC(=O)Nc3ccc4c(c3)OCO4)ccc2O[C@@H]1CN(C)C(=O)NC1CCCCC1
 : -1.1	0.4

Rewritten tab-delimited: three of the compounds above
molecule	Vaccinia stage	Vaccinia stage Venus
COc1ccc([Si](C)(C)[C@H]2[C@H](CCn3cc(CCO)nn3)O[C@@]3(C(=O)N(C)c4c(Br)cc(C)cc43)[C@@H]2C)cc1	?	.
COc1ccc(NC(=O)Nc2cccc3c2O[C@H](CN(C)Cc2ccc(Oc4ccccc4)cc2)[C@@H](C)CN([C@H](C)CO)C3=O)cc1	-34.3	-30.5
C=C[C@H](COC(C)=O)N(Cc1ccc(OC(C)=O)c(OC)c1)S(=O)(=O)c1ccc(Br)cc1	-3.0	-6.1

Going on with the list.
Every second line gives: Vaccinia stage	Vaccinia stage Venus
> COc1ccc2c3c(n(C)c2c1)[C@@H](CO)N(C(C)=O)CC31CCN(Cc2cccnc2)CC1
 : -6.5	-6.5
> O=C(C[C@H]1CC[C@H]2NC[C@@H](O)COC[C@@H]2O1)NCc1ccc2c(c1)OCO2
 : 4.0	6.2
> COc1ccc2c3c(n(C)c2c1)[C@@H](CO)N(Cc1ccccc1OC)CC31CCN(C(=O)C2CC2)CC1
 : 6.9	13.1
> O=C(NCc1ccc2c(c1)OCO2)[C@@H]1[C@@H](CO)[C@@H]2Cn3c(cccc3=O)[C@H]1N2Cc1ccncc1
 : 11.6	6.6
> C[C@@H](O)C#Cc1ccc([C@@H]2[C@H](CO)N3CCCCN(C(=O)Nc4ccccc4)C[C@@H]23)cc1
 : -3.9	4.4
> C[C@@H]1CN([C@H](C)CO)S(=O)(=O)c2ccc(C#CC3(O)CCCC3)cc2O[C@H]1CN(C)C(=O)Nc1cccc(F)c1
 : -27.2	-16.3
> COc1ccc(-c2cnc3c(c2)C(=O)N([C@@H](C)CO)C[C@@H](C)[C@@H](CN(C)Cc2ccc(C(=O)O)cc2)O3)cc1
 : 14.6	14.9
> C[C@H]1CN([C@@H](C)CO)S(=O)(=O)c2ccc(C#Cc3ccccc3)cc2O[C@@H]1CN(C)C(=O)Nc1ccccc1
 : ?	.
> CCS(=O)(=O)N1Cc2cc(C(=O)NCCOC)nc(-c3cccc(-c4ccncc4)c3)c2[C@H]1CCO
 : 11.9	4.1
> CCCN1[C@H](C(=O)OC)[C@@H](CO)[C@@H]2Cn3c(ccc(-c4cncnc4)c3=O)[C@@H]21
 : 13.6	12.9
> C[C@H]1CN([C@@H](C)CO)C(=O)c2cc(NC(=O)NC3CCCCC3)ccc2O[C@@H]1CN(C)Cc1ccc(Cl)c(Cl)c1
 : ?	.
> CC(=O)N[C@H]1CC[C@@H](CCNC(=O)C2CCC2)O[C@@H]1CO
 : -6.3	-7.3
> O=C(C[C@H]1CC[C@@H](NC(=O)C2CC2)[C@@H](CO)O1)NC1CCC1
 : 9.8	13.8
> C[C@@H]1CN([C@H](C)CO)C(=O)c2cc(NC(=O)Nc3ccc(F)cc3)ccc2O[C@@H](C)CCCCO[C@@H]1CN(C)CC1CCCCC1
 : ?	.
> N#C[C@@H]1[C@@H](c2ccc(C3=CCCCC3)cc2)[C@H](CO)N1S(=O)(=O)c1cccc(F)c1
 : -34.2	-19.5
> O=C(C[C@@H]1CC[C@@H](NS(=O)(=O)c2ccccc2)[C@@H](CO)O1)NCCN1CCCCC1
 : 1.0	8.6
> CCCN1C[C@@H](C)[C@@H](OC)CN(C)C(=O)c2ccc(NC(=O)Nc3cccc(F)c3)cc2OC[C@H]1C
 : 5.7	-0.1
> C[C@@H]1CN([C@@H](C)CO)C(=O)Cc2cc(NS(=O)(=O)c3cccs3)ccc2O[C@@H]1CN(C)C(=O)NC1CCCCC1
 : 13.3	6.6
